Vaccinia stage: blocks a specific stage of Vaccinia orthopoxvirus infection | Vaccinia-infected cells, mCherry/Venus stage reporter fluorescence; stronger effect = lower value; some inactives read as strong as hits | activity change (mCherry), % (no concentration beside the values) | hit rate 0.01% among 89,000;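 active means mCherry past -33% and 40 or more points under the early reporter, replicates agreeing; inconclusive means past -33% without that gap or agreement; tested in A549 cells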;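 further: scaled between vehicle wells and reference inhibitor wells; 23 nL library stock went into each well; one replicate is shown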
Vaccinia stage Venus: also measured in Vaccinia stage; calls as there; activity change (Venus), %; measured here: Venus reporter, other viral stage;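 negative = less Venus signal; first of two replicates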
* = called active by the depositor; ? = inconclusive; / = no result given; & = joins results of further samples.

A first look (two entries):
Compound,Vaccinia stage Venus,Vaccinia stage
CO[C@@H]1CN(C)C(=O)c2ccc(NC(=O)C3CCOCC3)cc2OC[C@@H](C)N(Cc2cccnc2)C[C@H]1C,9.1,10.1
C[C@@H]1CCCCO[C@H](CN(C)CC2CCCCC2)[C@H](C)CN([C@@H](C)CO)C(=O)c2cc(NS(=O)(=O)c3cn(C)cn3)ccc2O1,6.0,15.1

All compounds of this part, from the first entry:
Compound,Vaccinia stage Venus,Vaccinia stage
CO[C@@H]1CN(C)C(=O)c2ccc(NC(=O)C3CCOCC3)cc2OC[C@@H](C)N(Cc2cccnc2)C[C@H]1C,9.1,10.1
C[C@@H]1CCCCO[C@H](CN(C)CC2CCCCC2)[C@H](C)CN([C@@H](C)CO)C(=O)c2cc(NS(=O)(=O)c3cn(C)cn3)ccc2O1,6.0,15.1
O=C(c1cccnc1)N1CC(=O)N2[C@H](CO)[C@@H](c3ccc(/C=C/c4ccccc4)cc3)[C@H]2C1,-1.5,2.3
Cc1ccc(S(=O)(=O)Nc2cccc3c2O[C@H](CN(C)Cc2ccc(C(F)(F)F)cc2)[C@@H](C)CN([C@@H](C)CO)C3=O)cc1,-0.6,-3.1
CCC(=O)N1[C@H](CO)[C@@H](c2ccccc2)[C@@H]1CNC(=O)CN1CCOCC1,10.2,6.2
C[C@H](CO)N1C[C@H](C)[C@H](CN(C)C(=O)Nc2ccc(C(F)(F)F)cc2)Oc2ncc(-c3cccnc3)cc2C1=O,-1.6,-2.9
Cn1cnc(S(=O)(=O)N[C@H]2C=C[C@H](CC(=O)NCC3CCCCC3)O[C@H]2CO)c1,1.0,2.2
Cc1ccccc1-c1ccc([C@H]2[C@H](CO)N3C(=O)CN(C(=O)Nc4cccc(F)c4)C[C@@H]23)cc1,/,?

Next section
Compound,Vaccinia stage Venus,Vaccinia stage
COc1ccccc1CNC(=O)C[C@H]1CC[C@@H]2[C@H](COC[C@@H](O)CN2Cc2ccccc2)O1,-2.3,1.3
O=S(=O)(c1ccccc1)N1CC[C@@H]2[C@H]1c1cc(C#CC3CCCCC3)ccc1N[C@@H]2CO,1.4,2.3
CO[C@H]1CN(C)C(=O)c2ccc(NC(=O)c3ccccc3F)cc2OC[C@H](C)N(C(=O)c2ccccc2F)C[C@H]1C,2.6,-1.9
COc1ccc(NC(=O)N(C)C[C@H]2Oc3ccc(NC(=O)CCCN(C)C)cc3C(=O)N([C@H](C)CO)C[C@H]2C)cc1,10.9,11.9
Cc1ccc(S(=O)(=O)N(C)C[C@H]2Oc3c(NC(=O)CCCCCC(=O)Nc4ccccc4N)cccc3C(=O)N([C@@H](C)CO)C[C@H]2C)cc1,0.0,4.7
COc1ccc(NC(=O)Nc2ccc3c(c2)C(=O)N([C@H](C)CO)C[C@H](C)[C@@H](CN(C)Cc2ccc(Cl)c(Cl)c2)OCCCC[C@H](C)O3)cc1,-10.3,-11.4
Cc1noc(C)c1NC(=O)Nc1cccc2c1O[C@H](CN(C)C)[C@H](C)CN([C@H](C)CO)C2=O,11.2,25.3
O=C(c1ccc(F)cc1)N1C[C@@H]2N[C@H](C1)C2c1ccc(-c2ccc(F)cc2)cc1 (stereo partly drawn),-8.8,?

The list continues.
Compound,Vaccinia stage Venus,Vaccinia stage
CCC(=O)N[C@@H]1CC[C@H](CC(=O)NCCN2CCCCC2)O[C@@H]1CO,-5.1,-6.3
C[C@H]1CCCCO[C@H](CN(C)C(=O)Nc2ccc3c(c2)OCO3)[C@@H](C)CN([C@@H](C)CO)C(=O)c2cc(NC(=O)c3ccccc3)ccc2O1,-11.2,-15.2
C[C@@H]1CCCCO[C@H](CN(C)Cc2ccccc2)[C@H](C)CN([C@@H](C)CO)C(=O)c2cc(NS(=O)(=O)c3ccc(F)cc3)ccc2O1,/,?
C[C@@H]1CCCCO[C@@H](CN(C)S(=O)(=O)c2cccs2)[C@H](C)CN([C@@H](C)CO)C(=O)c2cc(NC(=O)CCCN(C)C)ccc2O1,-2.6,10.6
C[C@@H]1CN([C@H](C)CO)C(=O)Cc2cc(NC(=O)Nc3ccc(F)cc3)ccc2O[C@H]1CN(C)Cc1ccc2c(c1)OCO2,-3.9,1.8
CC(C)C#Cc1ccc2c(c1)O[C@@H](CN(C)C(=O)C1CC1)[C@H](C)CN([C@H](C)CO)S2(=O)=O,1.5,15.2
CNC[C@@H]1OCCCC[C@H](C)Oc2ccc(NS(C)(=O)=O)cc2C(=O)N([C@@H](C)CO)C[C@H]1C,10.1,19.0
COC(=O)[C@H]1[C@H](CO)[C@H]2Cn3c(cccc3=O)[C@H]2N1C(=O)C1CC1,-6.2,-5.8

An excerpt of these results, with values under each structure:
Results follow in this order: Vaccinia stage Venus	Vaccinia stage
- C[C@@H]1CN([C@H](C)CO)C(=O)Cc2cc(NC(=O)Nc3ccc(F)cc3)ccc2O[C@H]1CN(C)Cc1ccc2c(c1)OCO2
  -3.9	1.8
- CC(C)C#Cc1ccc2c(c1)O[C@@H](CN(C)C(=O)C1CC1)[C@H](C)CN([C@H](C)CO)S2(=O)=O
  1.5	15.2
- CNC[C@@H]1OCCCC[C@H](C)Oc2ccc(NS(C)(=O)=O)cc2C(=O)N([C@@H](C)CO)C[C@H]1C
  10.1	19.0

Additional structures
Compound,Vaccinia stage Venus,Vaccinia stage
CS(=O)(=O)Nc1ccc2c(c1)[C@@H]1C[C@@H](CC(=O)NCc3ccccc3)O[C@H](CO)[C@@H]1O2,-3.3,-4.0
CC(C)=CCN(C(=O)C#Cc1ccccc1)[C@H](CO)c1ccccc1,/,?
C[C@@H]1CN([C@@H](C)CO)C(=O)Cc2cc(NC(=O)C3CCCCC3)ccc2O[C@@H]1CN(C)Cc1ccc(-c2ccccc2)cc1,-3.1,-23.0
C[C@H]1CN([C@@H](C)CO)C(=O)c2cccc(NS(=O)(=O)c3ccccc3)c2O[C@@H]1CN(C)C(=O)Nc1cccc2ccccc12,14.4,18.4
Cn1cnc(CCNC(=O)C[C@@H]2CC[C@H]3[C@@H](COC[C@H](O)CN3C(=O)C3CC3)O2)c1,6.6,4.7
C#CCNC(=O)C1=C[C@@H](c2ccccc2)C[C@@H](OCCCCO)O1,11.5,4.5
COc1ccccc1-c1ccccc1[C@@H]1[C@@H](C#N)N(C(=O)CN(C)C)[C@@H]1CO,5.1,5.0
C[C@@H]1CN([C@H](C)CO)C(=O)c2cc(NS(=O)(=O)c3cn(C)cn3)ccc2O[C@@H](C)CCCCO[C@@H]1CN(C)C(=O)CCCN(C)C,1.9,9.6

(cont.)
Compound,Vaccinia stage Venus,Vaccinia stage
C/C=C/c1ccc([C@@H]2[C@H](CN(C)S(C)(=O)=O)N[C@@H]2CO)cc1,5.9,4.2
C[C@H](CO)N1C[C@H](C)[C@@H](CN(C)C(=O)CC2CC2)Oc2ncc(C#CC3CC3)cc2C1=O,4.1,15.0
C[C@H]1CN([C@@H](C)CO)C(=O)Cc2cc(NS(C)(=O)=O)ccc2O[C@H]1CN(C)S(=O)(=O)c1ccccc1,23.9,22.9
CC(=O)N(C)C[C@H]1Oc2ncc(C#Cc3ccccn3)cc2C(=O)N([C@@H](C)CO)C[C@H]1C,8.9,7.6
COc1ccccc1S(=O)(=O)N[C@@H]1CC[C@@H](CCNC(=O)C2CCCCC2)O[C@@H]1CO,-0.4,6.7
C[C@@H]1CN([C@H](C)CO)C(=O)c2cccc(NC(=O)NC3CCCCC3)c2O[C@@H]1CN(C)C(=O)Nc1ccc(C(F)(F)F)cc1,/,?
CC(C)NC(=O)N(C)C[C@H]1OCCCC[C@H](C)Oc2ccc(NS(=O)(=O)c3ccccc3)cc2C(=O)N([C@@H](C)CO)C[C@H]1C,9.2,10.7
CS(=O)(=O)N1[C@H](CO)[C@@H](c2ccc(C#CC3CC3)cc2)[C@@H]1C#N,-5.9,0.6

(further entries)
Compound,Vaccinia stage Venus,Vaccinia stage
COc1ccc(CNC(=O)C[C@@H]2C[C@H]3c4cc(NS(=O)(=O)c5ccc(F)cc5)ccc4O[C@H]3[C@H](CO)O2)cc1,8.9,-0.5
C[C@@H]1CN([C@@H](C)CO)C(=O)Cc2cc(NC(=O)CCC(F)(F)F)ccc2O[C@H]1CN(C)C(=O)Nc1ccccc1,13.4,9.7
COCC(=O)N1[C@H](C#N)[C@@H](c2ccccc2-c2ccc(C)cc2)[C@@H]1CO,-19.8,-28.6
C[C@H](CO)N1C[C@H](C)[C@@H](CN(C)C)Oc2ccc(NS(=O)(=O)c3ccccc3)cc2C1=O,2.9,3.9
C[C@H](CO)N1C[C@H](C)[C@@H](CN(C)Cc2ccc(C(F)(F)F)cc2)OCCCC[C@H](C)Oc2ccc(NS(=O)(=O)c3ccc(Cl)cc3)cc2C1=O,/,?
Cc1cc(C(=O)Nc2cccc3c2O[C@H](CN(C)C(=O)NC2CCCCC2)[C@@H](C)CN([C@H](C)CO)C3=O)n(C)n1,-2.1,2.3
O=C(C1CCCC1)N1CC(=O)N2[C@@H](CO)[C@H](c3ccc(-c4cccnc4)cc3)[C@@H]2C1,10.2,10.2
CC(C)CC#Cc1cnc2c(c1)C(=O)N([C@@H](C)CO)C[C@@H](C)[C@H](CN(C)S(=O)(=O)c1ccccc1)O2,-9.2,-5.9

Next entries.
Compound,Vaccinia stage Venus,Vaccinia stage
C[C@H](CO)N1C[C@H](C)[C@H](CN(C)Cc2cccc(F)c2)Oc2cc(-c3ccccc3)ccc2S1(=O)=O,-13.6,-22.9
CCCNC(=O)N(C)C[C@@H]1Oc2cc(C#CC3CC3)ccc2S(=O)(=O)N([C@H](C)CO)C[C@H]1C,-17.1,-23.3
C[C@@H]1CN([C@@H](C)CO)C(=O)c2c(c3ccccc3n2C)-c2ccccc2CO[C@@H]1CN(C)Cc1ccc(F)cc1,/,?
COc1ccc(NC(=O)Nc2cccc3c2O[C@H](CN(C)S(=O)(=O)c2ccc(Cl)cc2)[C@@H](C)CN([C@H](C)CO)C3=O)cc1,8.7,-4.6
C/C=C/c1ccc([C@H]2[C@@H](CO)N3C(=O)CN(C(=O)Nc4ccc(F)cc4)C[C@H]23)cc1,-16.4,-32.2
CN(C[C@H]1N[C@@H](CO)[C@@H]1c1ccccc1)C(=O)c1ccccn1,6.5,11.1
CC(C)c1cn(CC[C@@H]2CC[C@H](NS(=O)(=O)c3ccc(Cl)cc3)[C@@H](CO)O2)nn1,/,?
C[C@H](CO)N1C[C@H](C)[C@@H](CN(C)S(=O)(=O)c2ccc(F)cc2)Oc2c(NC(=O)Nc3ccc(F)cc3)cccc2C1=O,2.3,-4.0

New compounds follow:
Compound,Vaccinia stage Venus,Vaccinia stage
O=S(=O)(Cc1ccccc1)N1CCCCN2[C@H](CO)[C@@H](c3ccc(-c4ccccc4)cc3)[C@H]2C1,/,?
CN(C)C(=O)c1cccc(-c2ccc(C3[C@H]4CNC[C@@H]3N4S(=O)(=O)c3ccc(Cl)cc3)cc2)c1 (stereo partly drawn),17.3&7.6,18.3&9.2
CCCNC(=O)NC[C@H]1CC[C@@H]2[C@@H](CN2S(=O)(=O)c2ccccc2[N+](=O)[O-])O1,3.6,0.0
COCC(=O)N1CC(=O)N2[C@H](C1)[C@@H](c1ccc(C#Cc3cccnc3)cc1)[C@@H]2CO,-1.3,2.4
CCCNC(=O)N(C)C[C@@H]1Oc2ncc(C#CCc3ccccc3)cc2C(=O)N([C@@H](C)CO)C[C@H]1C,13.7,13.5
O=C(C[C@H]1CC[C@@H]2[C@H](COC[C@@H](O)CN2Cc2ccncc2)O1)NCc1ccccc1Cl,13.8,5.3
CCCNC(=O)[C@@H]1[C@@H](CO)[C@@H]2Cn3c(cccc3=O)[C@H]1N2C(=O)C1CCCC1,13.0,16.5
COc1ccc(-c2ccc([C@@H]3[C@H]4CN(CC5CCOCC5)CCCCN4[C@H]3CO)cc2)cc1,-5.2,1.9

Later entries:
Compound,Vaccinia stage Venus,Vaccinia stage
CCC(=O)N1CC(=O)N2[C@H](C1)[C@@H](c1ccc(C#CCc3ccccc3)cc1)[C@@H]2CO,-5.6,2.6
C[C@@H]1CN([C@H](C)CO)C(=O)c2cccc(NC(=O)NC3CCCCC3)c2O[C@@H]1CN(C)S(=O)(=O)c1ccc(Cl)cc1,-8.5,-10.3
CNC(=O)C[C@@H]1CC[C@H]2[C@@H](COc3ccc(NC(=O)Nc4ccc(F)c(F)c4)cc3C(=O)N2C)O1,-13.1,-12.8
COC(=O)C[C@H]1CC[C@@H]2[C@H](COc3ccc(NC(=O)c4cc(C)on4)cc3C(=O)N2C)O1,-4.5,9.2
COc1ccc(NC(=O)Nc2cccc3c2O[C@H](CN(C)Cc2ccc4c(c2)OCO4)[C@H](C)CN([C@@H](C)CO)C3=O)cc1,-12.4,-15.4
COc1ccccc1CNC(=O)C[C@@H]1C[C@@H]2c3cc(NC(=O)C4CCC4)ccc3O[C@@H]2[C@H](CO)O1,-14.3,-4.1
C[C@@H]1CCCCO[C@@H](CN(C)Cc2ccncc2)[C@@H](C)CN([C@@H](C)CO)C(=O)c2cc(NC(=O)c3ccncc3)ccc2O1,3.1,6.5
CN1C[C@H]2[C@@H](c3ccccc31)[C@H](CO)N2C(=O)CN1CCOCC1,6.4,7.1

Next part:
Compound,Vaccinia stage Venus,Vaccinia stage
C[C@@H]1CN([C@H](C)CO)C(=O)CCCn2cc(nn2)CO[C@H]1CN(C)C(=O)C1CCCCC1,3.3&4.9,9.7&7.2
C[C@H]1CN([C@@H](C)CO)C(=O)Cc2cc(NS(=O)(=O)c3ccc(Cl)cc3)ccc2O[C@H]1CN(C)Cc1ccc(Cl)c(Cl)c1,/,?
COC(=O)C[C@H]1CC[C@@H]2[C@H](COc3ccc(NS(=O)(=O)c4ccc(F)cc4)cc3C(=O)N2C)O1,11.5,14.7
CC(C)NC(=O)Nc1cccc2c1O[C@H](CN(C)S(=O)(=O)c1ccccc1)[C@H](C)CN([C@@H](C)CO)C2=O,-4.6,0.2
COCC(=O)N(C)C[C@@H]1[C@@H](c2ccc(-c3cccnc3)cc2)[C@H](CO)N1C(C)=O,9.1,20.1

High-throughput results from PubChem.

An excerpt; rates above refer to the full screens.
